Calb FLC: affects C. albicans growth with fluconazole | C. albicans CaCi-2 (fluconazole-resistant clinical isolate) + fluconazole, Alamar Blue growth, 48 h | growth inhibition, % (no concentration beside the values) | 0.57% of 300,000 active | AID 1979;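 active means most replicates above 75%; inconclusive means exactly half above 75%; inactive means most below 75%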;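 further: all wells also contain fluconazole at 8 µg/ml as a sub-toxic cotreatment; 0% = median of DMSO wells and 100% = median of geldanamycin control wells; wells of about 8 µL received 7.5 nL stock; the first replicate is given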
HNF4A DNA FP: change in binding of human HNF4 alpha to DNA; P41235; HNF4a-FITC DNA binding, fluorescence polarization, 1 h; activity change, % at 10 µM; 0.3% of 360,000 active; AID 1224865; in the data active means activity change above about 30%, passing the limit was not always enough;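 further: controls were the assay level and a saturating level of protein; the project sought stronger binding though the title names inhibitors; some compounds called inactive have numbers as strong as hits; positive values seem to mean higher polarization but the record does not say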
Target sequence (P41235 whole entry, looked up): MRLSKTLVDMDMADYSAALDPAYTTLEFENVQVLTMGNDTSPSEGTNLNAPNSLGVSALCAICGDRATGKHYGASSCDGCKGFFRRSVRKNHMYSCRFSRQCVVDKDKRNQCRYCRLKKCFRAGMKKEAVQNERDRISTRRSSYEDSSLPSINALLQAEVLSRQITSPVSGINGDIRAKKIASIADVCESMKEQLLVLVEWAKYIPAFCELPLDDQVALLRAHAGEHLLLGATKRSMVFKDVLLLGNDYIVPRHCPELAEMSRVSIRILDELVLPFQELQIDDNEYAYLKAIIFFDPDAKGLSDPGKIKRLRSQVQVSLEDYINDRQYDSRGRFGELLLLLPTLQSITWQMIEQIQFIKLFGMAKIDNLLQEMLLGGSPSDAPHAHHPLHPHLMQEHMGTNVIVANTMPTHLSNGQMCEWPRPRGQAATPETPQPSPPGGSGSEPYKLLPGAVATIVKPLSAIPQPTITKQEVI
LANA-H2B inh: blocks KSHV LANA binding to histone H2A/H2B; Q9QR71; inhibition, % (concentration not given with the values); cell-free LANA-H2A/H2B peptide, fluorescence polarization; 0.6% of 320,000 active; in the data active means inhibition mostly above about 10%, no sharp cut-off; inactive means mostly below about 6.7%;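 further: stock transfer was 7.5 nL into about 10 µL; 0% = median of vehicle wells and 100% = median of positive control wells; one replicate is shown; the record names a cut of 25% in any replicate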
RanGTP-Impb inh: inhibitors of RanGTP-importin-beta interaction, primary screen, biochemical, FRET, CFP-Ran, YFP-importin-beta, homogeneous; AID 2216; cell-free CFP-Ran/YFP-importin-beta FRET ratio; 1.1% of 300,000 active; inhibition, % (concentration not given with the values);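 active means most replicates above 15%; inconclusive means exactly half above 15%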;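 further: 0% = DMSO wells and 100% = Ran loaded with GDP instead of GTP; wells of about 40 µL received 100 nL stock; the first replicate is given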
ALR H2O2 inh: blocks human ALR sulfhydryl oxidase activity | purified ALR, DTT oxidation, H2O2 HRP-luminol luminescence | inhibition, % (no concentration beside the values) | 3.8% of 290,000 active | AID 485317;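 active means mean and each replicate at 75% or more; inconclusive means only one of the two met; inactive means neither met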;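 further: stock transfer was 7.5 nL into about 7.5 µL; 0% = neutral wells and 100% = wells with inactivated enzyme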
Target sequence (P55789 whole entry, looked up): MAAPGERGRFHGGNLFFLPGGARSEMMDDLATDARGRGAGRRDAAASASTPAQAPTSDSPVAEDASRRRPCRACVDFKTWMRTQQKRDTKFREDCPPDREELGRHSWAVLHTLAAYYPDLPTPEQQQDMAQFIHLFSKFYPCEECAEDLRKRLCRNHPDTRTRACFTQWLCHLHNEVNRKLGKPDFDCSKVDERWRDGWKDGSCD
Vif TR-FRET: inhibitors of Vif binding to APOBEC3G peptide, primary screen, biochemical, TR-FRET, GST-Vif 1-94, biotin-A3G peptide, dose response retest (AID 1117319); 0.57% of 260,000 active; TR-FRET GST-Vif / biotin-A3G peptide binding; higher % means a stronger effect; test concentration not given here; strong numbers were not always called active; one-dose inhibition, %; IC50 in µM for titrated hits;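 active means above the screen mean plus three standard deviations and confirmed in dose response; inconclusive means results disagree or hit not tested in dose response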;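 further: Vif residues 1-94 fused to GST binding biotinylated APOBEC3G peptide 110-148; 0% = full assay without inhibitor and 100% = GST in place of GST-Vif; retest series ran down from 100 µM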
Beta2AR agonist: agonists of human beta-2 adrenergic receptor inducing internalization | P07550 | Am2.2-beta2AR cells, FAP receptor internalization, flow cytometry; reference of the scale not given here | response, % (concentration not given with the values) | 0.43% of 340,000 active | AID 504454;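 active means response above a set limit, near 3 SD of response in nonfluorescent compounds, cut at about 42% in these data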;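 further: stock transfer was 100 nL into about 11 µL; a reference agonist was the positive control; negative values mostly stem from fluorescent compounds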
Target sequence (P07550 whole entry, looked up): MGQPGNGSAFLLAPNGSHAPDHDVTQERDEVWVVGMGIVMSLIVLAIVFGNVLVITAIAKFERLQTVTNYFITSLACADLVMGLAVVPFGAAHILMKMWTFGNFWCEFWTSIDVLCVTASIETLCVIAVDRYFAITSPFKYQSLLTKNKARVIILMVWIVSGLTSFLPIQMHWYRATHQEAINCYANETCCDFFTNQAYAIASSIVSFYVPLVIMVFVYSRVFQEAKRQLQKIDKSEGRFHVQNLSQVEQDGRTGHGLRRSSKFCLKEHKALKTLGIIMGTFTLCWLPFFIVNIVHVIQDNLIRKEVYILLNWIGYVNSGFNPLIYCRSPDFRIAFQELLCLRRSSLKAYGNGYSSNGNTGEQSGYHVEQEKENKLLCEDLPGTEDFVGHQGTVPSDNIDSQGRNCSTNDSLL
Numbers without * were called inactive; u = inconclusive; x = no result given.

The line under a structure holds: RanGTP-Impb inh, LANA-H2B inh, Vif TR-FRET, Calb FLC, Beta2AR agonist, ALR H2O2 inh, HNF4A DNA FP
CC(=O)NC(c1ccc(C)cc1)c1cc(Cl)c2cccnc2c1O (configuration not stated)
  -12, 0.3, x, -3, -11, 18, -5.3
O=C(c1ccco1)N1CCN(Cc2nnc(-c3ccccc3)o2)CC1
  0.0, 2.3, 7%, 2, 20, -8, 1.0
O=C1CSC(c2ccc(Cl)cc2Cl)N1c1ccccn1 (configuration not stated)
  -1.3, 4.6, 4%, -3, 7, -5, -1.1
O=C(COc1ccc(Br)cc1Cl)N1CCN(c2ncccn2)CC1
  x, -4.5, x, x, 23, x, 3.5
CN(C)c1ccc(NC(=O)CN2CCC(O)(c3ccccc3)CC2)cc1
  1.5, -6.1, u, 0, 1, x, -1.6
COc1ccc(CC(CC(=O)O)C(=O)Nc2ccc(Cl)c(Cl)c2)cc1 (configuration not stated)
  u, 0.7, x, 5, 0, 1, -2.8
Cc1ccc(Cl)cc1N1CCN(C(=O)Cc2csc(Nc3nc(=S)[nH]c4ccccc34)n2)CC1
  u, -0.4, 13%, 13, 1, -7, 3.2
COc1ccc(C(=O)N2CCN(c3ccc(NC(=O)c4ccco4)cc3)CC2)cc1
  -2.2, 5.4, 2%, 2, -6, 2, 1.4
CCC(=O)N1CCN(c2ccccc2NC(=O)COc2ccc(C(C)C)cc2)CC1
  2.3, 4.9, 3%, 9, 10, -4, 2.4
COc1cc(C(=S)N2CCOCC2)cc(OC)c1OC(=O)Cc1ccc(F)cc1
  u, 2.1, -3%, 3, 0, 0, -1.6
CCOc1cccc(C(=O)Nc2ccc3c(c2)OCCO3)c1
  0.6, -1.7, x, -5, 5, 0, 3.1
CCN(CC(=O)Nc1c(F)cccc1F)C(=O)c1ccc(N2CCOCC2)c([N+](=O)[O-])c1
  4.0, -2.8, x, x, 5, -3, 3.3
CCOC(=O)C1(Cc2ccc(OC)cc2)CCN(C(=O)CN2CCOC2=O)CC1
  -3.8, 3.4, x, 1, 3, x, -1.2
COc1ccc(N/N=C(/Oc2ccc([N+](=O)[O-])cc2)C(C)=O)cc1
  u, -3.9, 6%, -4, 7, x, 3.4
Cc1ccc(-n2c(O)c(C=NC3CCS(=O)(=O)C3)c3ccccc3c2=O)c(C)c1 (configuration not stated)
  -0.7, 0.5, 16%, 6, -32, -5, 4.0
COc1ccc(CN2C(=O)c3cccnc3C2=O)cc1S(=O)(=O)N1CCCCC1C (configuration not stated)
  4.6, -1.3, 1%, -3, -5, -1, 2.5
Cc1cc(NC(=O)C(C)SCC(=O)Nc2ccccc2N2CCCCC2)no1 (configuration not stated)
  5.0, 1.2, -8%, 1, 3, 2, -0.8
CCC1(c2ccccc2)NC(=O)N(CC(=O)NCC2COc3ccccc3O2)C1=O (configuration not stated)
  x, x, 2%, x, 0, x, -2.5
Cc1cccnc1-n1c(CCN2C(=O)c3ccccc3C2=O)nc2ccccc2c1=O
  -0.4, -0.8, u, 6, -16, -1, 3.3
CCCC(=O)C1=C(O)C(C(=O)OC)C(C)(C)CC1=Nc1cccc2ccccc12 (configuration not stated)
  -0.8, 1.8, 3%, 12, 5, -19, 1.2
OC(CN1CCOCC1)CN(c1ccccc1)c1ccccc1 (configuration not stated)
  0.7, 4.5, 5%, -7, 5, 99*, 0.0
O=C(COC(=O)c1cncc(Br)c1)Nc1nc(-c2ccc(F)cc2)cs1
  -0.2, -1.6, -19%, -11, 3, -7, 8.0
CCOC(=O)c1c(O)c2ccccc2oc1=O
  -1.2, 0.4, -7%, -3, 9, 0, 2.4
COc1ccc(CNC(=O)CCCn2nc(C)c3c(C)n(-c4ccccc4)nc3c2=O)cc1
  2.5, 2.3, x, 1, -10, -4, -0.8
COc1ccc(C2C(C#N)=C(N)OC3=C2C(=O)CCC3)cc1OC (configuration not stated)
  -11, 2.2, x, 0, 0, -16, 0.0
Cc1cc(C)c2nc(-c3ccccn3)cc(C(=O)n3cccn3)c2c1
  5.8, 5.6, x, 39, 8, 2, -2.6
Cc1ccc(S(=O)(=O)CCC(=O)NCCC2=CCCCC2)cc1
  -0.3, 2.5, -1%, 0, -2, -13, -0.3
COc1ccccc1CNC(=O)c1cnn2c(C(F)F)cc(C)nc12
  1.6, -1.3, 2%, 8, 3, 1, 2.8
O=C(NC1CCS(=O)(=O)C1)c1cn(-c2ccccc2)nc1-c1ccccc1 (configuration not stated)
  -1.8, 2.4, -5%, -3, -20, -13, 2.4
CC(=O)N/C(=C\c1ccc(F)cc1)C(=O)NC(Cc1ccccc1)C(=O)O (configuration not stated)
  -9.5, -0.6, u, -2, -5, -3, 1.1
COc1cc(NC(=O)CN2CCC(C(N)=O)(N3CCCCC3)CC2)c(OC)cc1Cl
  -0.5, 1.3, -9%, -17, 1, -4, 0.5
Cc1cc(=O)[nH]c(SCCc2ccccc2)n1
  u, -8.4, 7%, 12, -1, -3, 2.2
CN1CCN(CCCNC(=O)c2ccc3c(=O)n(CCc4ccccc4)c(=O)[nH]c3c2)CC1
  -1.8, 6.6, x, 27, 40, x, 4.3
O=C(N/N=C/c1ccc(Cl)cc1)c1ccc2c(c1)OCO2
  2.6, 2.1, -5%, 10, -7, x, 1.9
COc1ccc(C(=O)n2nnc3ccccc32)cc1Br
  u, 6.3, 3%, u, 1, 4, -1.1
CCCC(=O)O[C@@H]1C[C@@H](C)N(C(=O)c2ccccc2)c2ccc(C)cc21
  4.3, x, 2%, -17, 0, x, 1.3
C1=C(c2ccccc2)N2CCN=C2S1
  2.1, 3.7, u, -25, -3, 12, 1.0
COCCNC(=O)CS(=O)Cc1nc(-c2ccc(OC)cc2)oc1C (configuration not stated)
  -6.3, 0.1, 26%, -4, 4, 99*, -2.3
C/C=C(/C)C(=O)Nc1cccc(C2=NOC3(C2)C[C@@H](C(N)=O)N(C(=O)[C@H]2CCC(=O)N2)C3)c1 (some centres not stated)
  u, -5.3, 1%, 1, -1, -3, -2.0
Cc1cc(C)c2cc(C)c(SCC(=O)NCc3ccco3)nc2c1
  u, -0.6, x, 18, -3, 39, 3.8
Cc1c(C)n2c(SCC(=O)N3CCC(C)CC3)nnc2[nH]c1=O
  0.8, -7.6, 2%, 1, -10, 0, 0.6
Cc1cccc(C)c1NC(=O)N1CC=CCC1
  -0.8, 0.1, -5%, 11, -3, -5, -2.0
Cc1cccc(NC(=O)CSc2nnc([C@@H](N)Cc3ccccc3)o2)c1C
  -1.1, -2.6, 5%, 20, 0, 8, 3.8
COc1cc(C2C3=C(CC(C)(C)CC3=O)OC(N)=C2[N+](=O)[O-])ccc1O (configuration not stated)
  -3.2, -2.7, 17%, 19, -2, 26, 4.2
Cc1cccc(N2CCN(S(=O)(=O)c3c(C)noc3/C=C/N(C)C)CC2)c1C
  6.3, -0.7, x, -6, 1, -3, 2.3
CC(=O)Nc1ccc(Nc2cc(C)nc3c(-c4ccccc4)c(C)nn23)cc1
  -2.5, -1.6, x, 55, -7, 25, -3.3
COc1cc(C(=O)O)c2c(c1C)OC(=O)c1c(C)cc(O)c(C=O)c1O2
  u, 4.2, x, -4, 7, 99*, -2.8
COCCCNC(=O)/C(C#N)=C/c1ccc(F)cc1
  1.6, -3.3, x, 0, 0, x, 1.7
CCn1nc(NS(=O)(=O)c2ccc([N+](=O)[O-])cc2)c2cc3ccc(C)cc3nc21
  0.5, 14, 7%, 35, 6, 21, -1.5
O=C(Nc1ccc(Cl)c(C(F)(F)F)c1)C(=O)N1CCCCC1
  u, -4.4, x, 21, -3, -1, 1.6
O=C(CSc1nc2ccccc2c(=O)n1-c1ccccc1)N1CCN(CCO)CC1
  -4.6, -2.6, 5%, 3, -1, -5, 2.0
O=C(NCC(=O)N1CCN(C(=O)c2ccco2)CC1)c1ccc(Cl)cc1
  1.0, 0.3, 2%, -1, 0, -6, -2.5
O=C(NNC(=O)c1ccccc1O)c1ccc(Cl)c(S(=O)(=O)N2CCCCC2)c1
  1.7, -0.6, 10%, 2, 1, 97*, -1.9
Cc1cccc(C(=O)NCCC(=O)Nc2ccc(C#N)cc2)c1
  2.0, 0.6, x, 0, 20, 0, 3.0
COc1cccc(C(=O)NCC(=O)OCC(=O)Nc2ncc(Cl)cc2Cl)c1
  -0.3, -1.2, x, -1, 9, 0, -5.8
Cc1c(C(=O)N(C)Cc2ccccc2)oc2c(Cl)cccc12
  1.3, -0.6, x, -6, -7, -37, -4.3
Nc1nc(Nc2ccccc2)nc(N2CCCC2)c1[N+](=O)[O-]
  1.4, 0.3, 2%, 12, -1, 12, -0.7
O=S(=O)(Nc1nc2ccccc2s1)c1ccc(Cl)nc1
  -2.2, 1.6, x, 19, -4, x, -1.5
COc1ccc(Cl)cc1NC(=S)NNC(=O)c1cccs1
  u, 0.1, u, 9, 13, u, 0.5
COc1cc(NC(=O)c2ccco2)c(OC)cc1NC(=O)CCC(=O)Nc1cccc(C)c1C
  x, 5.3, u, x, -15, -14, 2.9

Look-ups from the entries so far.
`Cc1ccc(Cl)cc1N1CCN(C(=O)Cc2csc(Nc3nc(=S)[nH]c4ccccc34)n2)CC1` in Beta2AR agonist shows 1
`COc1cc(NC(=O)CN2CCC(C(N)=O)(N3CCCCC3)CC2)c(OC)cc1Cl` in Calb FLC shows -17
`COc1cc(C(=S)N2CCOCC2)cc(OC)c1OC(=O)Cc1ccc(F)cc1` in ALR H2O2 inh shows 0

Other records follow:
The line under a structure holds: RanGTP-Impb inh, LANA-H2B inh, Vif TR-FRET, Calb FLC, Beta2AR agonist, ALR H2O2 inh, HNF4A DNA FP
COc1ccc(S(=O)(=O)Nc2ccc(C(N)=O)cc2)cc1C(=O)N1CCCCCC1
  -2.3, 3.2, 4%, 5, 2, -9, -0.4
CCN(CC(=O)NCc1cccs1)C(=O)c1cc(S(=O)(=O)N2CCOCC2)ccc1C
  u, 0.6, -11%, -4, 3, -13, 3.2
Cc1ccc2ncnc(NCCCCCC(=O)O)c2c1
  2.2, -9.5, x, 9, -2, 0, 3.6
Cc1ccc(C(=O)Nc2ccc(C(=O)N/N=C/c3ccccn3)cc2)cc1
  -0.6, -0.7, 2%, 0, -5, -11, -0.2
COc1cc(C(=O)n2nc(C)cc2C)ccc1O
  2.4, 0.6, -3%, -1, 1, 95*, 2.2
O=C(/C=C/c1ccccc1)OCCN=C1NS(=O)(=O)c2ccccc21
  5.0, 0.6, x, -5, 4, x, 0.3
O=C(CN1C(=O)NC2NC(=O)NC21)N/N=C/c1ccccc1O (configuration not stated)
  1.0, -7.3, -4%, -9, 10, 12, -1.1
Cc1noc(C)c1CC(=O)Nc1ccc2c(c1)OCO2
  x, x, 5%, x, -1, x, 1.1
CCOC(=O)N1CCN(C(=O)CCSc2ccccc2)CC1
  -3.2, 3.8, 19%, -14, 2, -2, -1.7
COc1ccc(CN2C3CCCC2CC(NC(=O)/C=C/c2ccccc2)C3)cc1 (configuration not stated)
  3.8, 0.3, -6%, -23, -6, -9, 1.1
O=S(=O)(c1ccccc1)N1CCN(C(=S)Nc2ccccc2)CC1
  x, -0.6, x, -11, -3, 1, 5.1
CC(=O)c1ccc(-c2cc([C@H]3[C@H]4C=CC[C@@H](C)[C@@H]4C(=O)N3Cc3ccccc3)ccc2F)cc1
  3.4, 4.3, -7%, -5, 3, x, -3.7
CCOC(=O)c1c(-c2ccccc2)csc1NC(=O)C(C)NCc1ccco1 (configuration not stated)
  3.3, -6.9, x, 8, 1, -3, -2.0
NC(=O)Cn1cc(/C=N\NS(=O)(=O)c2cccc([N+](=O)[O-])c2)c2ccccc21
  u, 3.5, x, -2, -15, 50, 0.7
COCCN(C(=O)COC(=O)Cc1c[nH]c2ccccc12)c1c(N)n(Cc2ccccc2)c(=O)[nH]c1=O
  -2.3, 5.1, -5%, 5, -3, x, 4.3
COc1ccc(C2CC(=O)c3c(C)nc(N4CCN(Cc5ccccc5)CC4)nc3C2)cc1OC (configuration not stated)
  3.2, -0.6, 28%, 9, 13, 32, 2.7
